# High-throughput results from PubChem.
# Sfp inh = qHTS Assay for Inhibitors of Bacillus subtilis Sfp phosphopantetheinyl transferase (PPTase); 4'-phosphopantetheinyl transferase ffp (Bacillus subtilis), Q9F4F7; Biochemical Sfp PPTase activity, qHTS; Potency, µM, inactives show max response, negative = inhibition, actives largely listed as inhibitors; hit rate 3.5% among 310,000; AID 1490, 2009; active = well fitted inhibition curve with a large enough effect; inconclusive = small, poorly fitted or top-dose-only effect, or another doubt; inactive = no such curve, though single readings can be large or run the other way;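 also: the enzyme is Sfp with the accession as filed and its product quenches rhodamine fluorescence; potency is read from the fitted curve at half-maximal effect; 0% = enzyme reaction without inhibitor and -100% = no enzyme wells; top concentration of the series not given in the record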
#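 Fluorescence-quenching assay with 15 nM Sfp, 5 uM rhodamine-CoA and 12.5 uM BHQ-2-labelled ybbR peptide in pH 7.6 Hepes/MgCl2 buffer. Enzyme was pre-incubated with compound for 15 min at room temperature. Rate was taken from the 30-min fluorescence change (525/598 nm).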
# D2 potentiator = Beta-Arrestin HTS for Positive Allosteric Modulators of the Human D2 Dopamine Receptor: Potentiators; D(2) dopamine receptor (Homo sapiens), P14416; DiscoveRx D2 beta-arrestin cells, luminescence, 90 min; 100% = 57 uM dopamine signal; potentiation, % (concentration not given with the values); hit rate 0.23% among 360,000; AID 624464, 2012; active = potentiation of 50% or more; inconclusive = 30% to 50%; inactive = 30% or less;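 also: compound concentration not given in the record; tested on top of an EC20 dose of dopamine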
# Target sequence (P14416 whole entry, looked up): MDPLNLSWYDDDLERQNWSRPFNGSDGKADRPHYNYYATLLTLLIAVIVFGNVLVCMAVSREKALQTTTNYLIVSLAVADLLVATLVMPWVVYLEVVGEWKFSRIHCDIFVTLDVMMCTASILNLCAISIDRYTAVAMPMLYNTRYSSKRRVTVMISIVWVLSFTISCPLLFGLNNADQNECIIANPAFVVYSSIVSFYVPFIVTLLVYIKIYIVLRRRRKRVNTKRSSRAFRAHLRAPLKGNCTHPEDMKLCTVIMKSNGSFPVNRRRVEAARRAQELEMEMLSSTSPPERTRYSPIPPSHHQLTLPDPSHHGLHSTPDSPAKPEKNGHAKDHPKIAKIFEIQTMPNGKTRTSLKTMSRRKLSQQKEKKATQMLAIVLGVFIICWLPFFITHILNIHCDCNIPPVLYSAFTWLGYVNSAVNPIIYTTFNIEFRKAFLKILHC
#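 PathHunter beta-arrestin assay in DiscoveRx D2 cells. Compounds were added with an EC20 of dopamine (50 nM final) for 90 min at 37 deg C. Luminescence was read 1 h after detection reagent, with 57 uM dopamine as the EC100 control.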
# Menin MLL FP FL = qHTS Assay for Inhibitors Targeting the Menin-MLL Interaction in MLL Related Leukemias: Competition With Fluorescein Labeled MLL-derived Peptide. Fluorescence polarization, fluorescein-MLL peptide displacement from menin. FP activity change, % at 61.4 µM. 290,000 tested, under 10 active. AID 1766, 2009; inconclusive = falling polarisation curve, or a change in total fluorescence; inactive = total fluorescence flat and polarisation flat or rising; no compound was filed as active; the % refers to the polarisation; negative = inhibition;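 also: % of control where 0% means no effect; inhibitors lower the polarisation; unlabelled MLL peptide was the positive control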
# TRPV1 potentiator = HTS Assay for Compounds that Act as Potentiators of the Vanilloid Receptor 1. Transient receptor potential cation channel subfamily V member 1 (Homo sapiens), Q8NER1. TRPV1-expressing cells, Fluo-8 calcium influx, capsaicin EC20 potentiation; host cell line not named in the record; control for the full effect not named in the record. potentiation, % at 8.33 µM. hit rate 0.02% among 320,000; active means potentiation above 80%; inconclusive means 30% to 80%; inactive means below 30%; also: 0% is about no effect
#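 Cells expressing TRPV1 were dye-loaded with Fluo-8 and read kinetically: 10 s baseline, 3 min after compound (agonist portion), then 2 min after EC20 capsaicin (allosteric enhancer portion). Calcium-bound dye fluorescence at 480/520 nm.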
# gsp ag = qHTS for Agonist of gsp, the Etiologic Mutation Responsible for Fibrous Dysplasia/McCune-Albright Syndrome: qHTS | gsp mutant cells, cAMP HTRF, 30 min; control for the full effect not named in the record | Potency, µM (doses to about 76.9 µM), for inactives: at the top dose activation (cAMP increase), usual class: activators | hit rate 0.13% among 340,000; active = well fitted activation curve with a large enough effect; inconclusive = small, poorly fitted or top-dose-only effect, or another doubt; inactive = no such curve, though single readings can be large or run the other way; cell line not stated here;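 also: phosphodiesterase inhibitor Ro 20-1724 added with compounds to block cAMP breakdown; potency is read from the fitted curve at half-maximal effect; nearly all actives have a fitted effect of over 60% in size; about a fifth of the inactives were tested at one dose only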
#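 Cells stably selected in G418 were plated at 2000/well, grown 16-24 hr, then given compounds in DMSO with the PDE inhibitor […] (300 uM solution added) for 30 min at 37C; cAMP was read by HTRF.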
# ClpP mod = qHTS Assay for Activators of ClpP; hit rate 1.9% among 340,000; ATP-dependent Clp protease proteolytic subunit (Bacillus subtilis (strain 168)), P80244; AID 651965, 2013; purified B. subtilis ClpP, FRET peptide cleavage, 20 min; Potency, µM (top dose mostly 57.5 µM), for inactives: at the top dose activity change, negative = active; active = well fitted falling curve with a large enough effect; inconclusive = small, poorly fitted or top-dose-only effect; inactive = no such curve, though single readings can be large or run the other way; also: potency is read from the fitted curve at half-maximal effect; the source files actives as falling curves though it sought activators and does not explain the sign; nearly all actives have a fitted effect of over 65% in size; many hits overshoot -100%
# Target sequence (P80244 whole entry, looked up): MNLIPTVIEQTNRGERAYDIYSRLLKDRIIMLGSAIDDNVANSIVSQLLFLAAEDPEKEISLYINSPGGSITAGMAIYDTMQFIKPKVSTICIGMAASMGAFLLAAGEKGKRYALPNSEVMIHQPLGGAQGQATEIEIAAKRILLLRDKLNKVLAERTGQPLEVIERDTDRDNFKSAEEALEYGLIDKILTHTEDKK
#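 Purified B. subtilis ClpP, 10 microg/mL final in Tris/HCl pH8 with KCl, BSA, glycerol and Tween-20, cleaved an Abz/nitrotyrosine-quenched decapeptide. Fluorescence (ex 320, em 430) was read at 0 and 20 min at room temperature. Delta was normalized to 5.8 microM ADEP and DMSO/no-enzyme controls.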
# gsp antag = qHTS for Antagonists of gsp, the Etiologic Mutation Responsible for Fibrous Dysplasia/McCune-Albright Syndrome: qHTS. gsp-mutant cells, cAMP HTRF, 30 min; control for the full effect not named in the record. Potency, µM (titrated, usually from 76.9 µM), for inactives: at the top dose activity change, negative = inhibition, most hits filed as inhibitors. hit rate 0.4% among 340,000; active = falling curve of any shape with a large fitted effect; inconclusive = falling curve, mostly with a smaller effect; inactive = flat or rising curve; cell line not stated here;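 also: intracellular cAMP measured with PDE inhibitor Ro 20-1724 present during compound exposure; potency is read from the fitted curve at half-maximal effect; % is scaled to controls: 0 for no effect and ±100 for the full control effect; nearly all actives have a fitted effect of over 65% in size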
#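 Measurement of cellular cAMP by homogeneous time-resolved fluorescence following a 30 min compound exposure at 37C. The PDE inhibitor […] was present throughout; the assay buffer was DPBS with 0.05% BSA and 0.005% Tween 20.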
# Active calls of the source: *; ? = inconclusive; nt = no result given; & = joins results of further samples; [ ] = dose if it differs, or a comment. Random draw from the library. About 5.1% of those tested had a hit in this group.
SMILES,Sfp inh,D2 potentiator,Menin MLL FP FL,TRPV1 potentiator,gsp ag,ClpP mod,gsp antag
Cc1ccc(N(C(=O)c2csnn2)C(C(=O)NC2CCCCC2)c2cccnc2)cc1C (stereo unspecified),15%,-6,-5.5,-12,-7%[15.4 µM],0.8%,-30%
CCCC1=Nc2cc(C(=O)NCCN3CCCC3)ccc2Sc2ccccc21,-14%,-26,1.7,8,-4%,-1.5%,-3%
O=C(Cc1cc(C(=O)O)c2ccccc2n1)Nc1ccccc1,-1%,7,8.6,-4,20%,nt,-3%
COc1ccc(Cl)cc1NC(=O)CN1CCc2ccccc2C1,-7%,7,0.7,-6,?,0.9%,?
O=C(CCCN1CCOCC1)c1ccc2c(c1)OCCO2,7%,-22,0.9,-20,1%,-1.9%,0%
COc1cccc(Cl)c1NC(=O)N1CCN(c2cc(C)nc3ccccc23)CC1,8%,-9,1.1,2,-1%[15.4 µM],0.3%,-31%
N#Cc1ccccc1OCC(=O)OCC(=O)NC1CCCCC1,nt,-4,nt,1,-5%[15.4 µM],-1.4%,4%
C=CCn1cnc2c(c1=O)c1nc3ccccc3nc1n2Cc1ccccc1,0%,nt,-0.4,0,nt,nt,nt
Brc1ccc(Oc2ncc(CN3CCN(c4ccccc4)CC3)s2)cc1,-1%,-2,-0.7,10,23%,-1.2%,-14%
Nc1cc(=O)n(Cc2ccccc2)c(=O)n1-c1ccc(F)cc1,8%,18,0.5,3,-3%[15.4 µM],-2.3%,1%
COCc1cc(C)nc(Nc2ccc(C)cc2C)c1C#N,9%,-5,0.5,-6,1%,-13%,9%
COc1cccc(N(C(=O)c2snc(C(N)=O)c2N)C(C(=O)NCC2CCCO2)c2cccs2)c1 (stereo unspecified),-1%,-2,-4.7,3,11%,nt,-17%
CC(C)c1cc2cc3ccc(=O)oc3cc2o1,19%,-6,0.0,-3,-23%,nt,-3%
O=C(CCc1nnc(C2(c3ccc(Cl)cc3)CCC2)o1)N1CCCC1,12%,-10,-4.5,-3,-16%,0.0%,-9%
COc1ccc(CC(=O)Nc2cccc(C(=O)Nc3ccccc3C(=O)O)c2)cc1OC,15%,18,0.7,6,-16%,0.5%,-18%
CCOc1nc(N(C)C)nc(-n2nnc(C(C)=O)c2C)n1,24%,0,4.5,6,11%,-1.2%,12%
CCOC(=O)C[C@H]1c2ccc(C(F)(F)F)cc2S(=O)(=O)N1c1ccccc1,nt,-3,nt,nt,5%,-3.2%&1.2%,4%
Cc1ccc(C)c(C(=O)CC2(O)C(=O)N(C)c3ccccc32)c1 (stereo unspecified),1%,6,3.1,-10,-28%,-0.1%,1%
O=C(CC1C(=O)NCCN1Cc1ccc(F)cc1)NCCOc1cccnc1 (stereo unspecified),-7%,-15,-19,4,-2%[15.4 µM],nt,6%
Cc1ccccc1NC(=O)Cc1nc(COC(=O)c2ccc(NC(N)=O)cc2)cs1,nt,3,nt,nt,-10%,nt,?
COCCn1c(SCC(=O)NC2CC2)nnc1-c1ccco1,13%,2,4.7,-1,1%,nt,3%
Cc1nn(C)c(C)c1S(=O)(=O)N1CCc2ccccc21,13%,4,-0.2,2,-49%[inhibitor],-3.0%,-2%
COc1ccc(C2NC(=O)c3ccccc3O2)c(OC)c1OC (stereo unspecified),-9%,-9,-3.1,12,?,?,4%
Cc1ccc(C(=O)COC(=O)CCC(=O)NC2CCCCC2)cc1C,8%,-8,0.1,-3,?,-1.4%,9%
CCOc1cc(C2c3c(oc4ccccc4c3=O)C(=O)N2c2nccs2)ccc1O (stereo unspecified),2%,-5,5.8,-4,?,2.3%,-16%
COc1ccc(CNC(=O)C/C(C)=N/NC(=O)COc2ccc(Br)cc2)cc1,4%,-1,3.1,0,7%,nt,5%
COc1cc2c(cc1OC)C1CCN3C(=O)CCC3N1CC2 (stereo unspecified),nt,-6,nt,nt,10%,?,8%
CSc1ccccc1NC(=O)CN(C)CC(=O)NCc1ccccc1,-1%,-8,0.0,-19,18%[15.4 µM],1.0%,6%
Cc1cc(-c2ccccc2)nc(Oc2cccc(C(F)(F)F)c2)c1S(C)(=O)=O,-2%,-6,2.3,5,-9%,35µM*,-8%
COc1ccc(C)cc1NC(=O)CSc1nc2ccccc2nc1N1CC(C)OC(C)C1 (stereo unspecified),-13%,-2,8.0,20,?,-25%,-9%
Cn1nc(CC(=O)NC2CCCCCC2)c2ccccc2c1=O,-10%,-4,1.2,nt,-10%,-4.6%,0%
CC(=O)CS(=O)(=O)c1ccc(Oc2ccc(S(=O)(=O)CC(C)=O)cc2)cc1,16%,-8,1.9,7,3%,-5.0%,-7%
Cc1c(N=C2SC(CC(=O)Nc3ccccc3)C(=O)N2CCN2CCOCC2)c(=O)n(-c2ccccc2)n1C (stereo unspecified),12%,-2,0.0,-19,1%[15.4 µM],nt,-11%
CC1CCC(NC(=O)C2CCN(c3cnccn3)CC2)CC1 (stereo unspecified),4%,-4,1.6,7,-22%,-12%,8%
O=C(COC(=O)/C=C/c1cccc(Cl)c1Cl)Nc1ccc2[nH]c(=O)[nH]c2c1,nt,16,nt,8,13%,-5.2%,0%
Cn1c(=O)c2c([nH]c(=S)n2Cc2ccc(Cl)cc2)n(C)c1=O,20µM*,0,0.5,?,34%,nt,24%
COc1ccc(NC(=O)c2cc(C)cc(C)c2)cc1[N+](=O)[O-],-9%,-7,3.0,-3,-95%[inhibitor],nt,2%
COc1ccc(Cl)cc1/C=C/c1ccc2cccc(O)c2n1,9%,-13,-8.2,3,10%,-1.6%,2%
CO/N=C/NC(=O)c1c(OC)ccnc1Oc1ccc(Cl)cc1,9%,3,-0.7,11,21%,-0.7%,-2%
CCN(CC(=O)N1CCOCC1)S(=O)(=O)c1ccc2ccccc2c1,-5%,-3,-0.2,-18,2%,2.6%,-2%
CCOC(=O)C1(S(=O)(=O)c2ccccc2)CCN(Cc2ccc(Cl)cc2)CC1,?,-7,-0.4,9,-8%,-4.3%,-18%
CC(C)N1CCN(Cc2cn[nH]c2C2CCCCC2)CC1CCO (stereo unspecified),8%,-10,0.7,2,-4%,nt,9%
CCOC(=O)C1CCCCN1Cc1cccc(Oc2ccccc2)c1 (stereo unspecified),7%,-19,?,-7,-40%[inhibitor],nt,0%
COc1ccc(NC(=O)C2CCN(S(=O)(=O)c3c(C)noc3C)CC2)cc1OC,6%,-5,-3.5,-16,0%,-0.7%,4%
Cc1cc(C)n(-c2nc3ccccc3[nH]c2=O)n1,-3%,-2,-7.3,?,8%,28µM*,4%
O=[N+]([O-])c1cnccc1NC1CCCCC1,2%,-5,-6.5,6,25%,-2.4%,0%
Cc1nc2ccccc2c(=O)n1/N=C/c1c(O)ccc2ccccc12,0%,8,?,-9,-1%,nt,-15%
Cc1ccccc1CN(c1ccc(C(=O)N2CCN(C)CC2)cc1)S(C)(=O)=O,nt,-7,nt,nt,3%[15.4 µM],nt,-5%
Cn1c(COc2ccccc2)nnc1SCC(=O)NCc1ccccc1,13%,4,-0.9,-9,-22%,-0.4%,-6%
O=C(COc1ccccc1/C=C\c1nc(O)c([N+](=O)[O-])c(=O)[nH]1)Nc1ccccc1,-5%,-1,5.0,11,44%[15.4 µM],nt,-16%
COc1ccc(N2CCN(C(=O)C(Cc3ccccc3)NC(=O)c3ccccc3)CC2)cc1 (stereo unspecified),nt,-2,nt,nt,9%[15.4 µM],nt,-19%
CCCc1nc2oc3c(NCCN(C)C)ncnc3c2c2c1CCCC2,11%,-14,0.9,4,-30%[inhibitor],13%,16%
CC(=O)c1c(C)[nH]c(C(=O)COC(=O)c2cc(C)oc2C)c1C,nt,1,nt,-15,20%,-3.5%,?
O=C(NC1CCCC1)C(c1ccccn1)N(Cc1ccccc1F)C(=O)c1csnn1 (stereo unspecified),23%,-9,-1.5,3,-19%,nt,2%
Cc1ccc(C(=O)NNC(=O)C2CCN(c3nc(C)cc(C)n3)CC2)cc1,-3%,-7,2.8,0,5%,?,5%
N#C/C(C(=O)c1ccccc1)=C1/CCCN1,13%,0,1.4,-2,3%,0.0%,4%
Cc1noc(C)c1S(=O)(=O)N1CCCC(C(=O)Nc2nccs2)C1 (stereo unspecified),-3%,-3,-1.6,-4,?,-0.6%,2%
Cc1ccc(S(=O)(=O)N2CCCCC2)cc1NC(=S)NC(=O)c1ccco1,?,-21,-0.2,-10,3%,-3.6%,4%
O=C(NC(=S)NCCc1ccc(Cl)cc1)c1ccco1,-12%,1,4.5,1,?,0.2%,-6%
COc1ccc(NS(=O)(=O)c2ccc(NC(=O)c3ccc(N(C)S(C)(=O)=O)cc3)cc2)cc1,9%,?,10,-1,-4%,-0.4%,-13%
# Remaining list, next part:
SMILES,Sfp inh,D2 potentiator,Menin MLL FP FL,TRPV1 potentiator,gsp ag,ClpP mod,gsp antag
O=C(/C=C/c1cccc([N+](=O)[O-])c1)N(c1ccccn1)c1ccccn1,12%,-10,2.2,0,?,-0.1%,8%
O=C(OCC(=O)c1ccccc1Br)c1ccncc1,-9%,-26,-0.1,?,13%[15.4 µM],0.3%,1%
COc1ccc(NC(=O)CSCC(=O)N(C)CC(=O)Nc2ccc(Cl)c(C(F)(F)F)c2)cc1,nt,-13,nt,-2,8%[15.4 µM],nt,-23%
CCCc1ccc(/C=C2\C(=O)c3ccccc3C(O)=C2C(=O)OCC)cc1,2.8µM*,nt,12,13,nt,nt,nt
